# Source: PubChem BioAssay (National Center for Advancing Translational Sciences (NCATS))
# SmPrx2 inh: inhibitors of Schistosoma mansoni peroxiredoxin 2 | S. mansoni Prx2 activity coupled to TGR/GSH (TGR is thioredoxin glutathione reductase), NADPH fluorescence loss, qHTS; some inactives read as strong as hits | 65,000 tested, 0.07% active | Potency, µM; active means full or partial inhibition curve with a strong effect at the top dose; inconclusive means weaker partial or single-point curve; inactive means no accepted curve; also: series up to 57 µM; many of its hits are not listed in these tables
#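 Prx2 activity was followed as the loss of NADPH fluorescence (ex 365/em 450 nm), read every 30 sec for 8 min after H2O2 start. The enzyme mix (50 nM Prx2, 25 nM TGR, GSH, NADPH; pH 7.4 phosphate buffer) was incubated with compound for 15 min at room temperature first.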
# LT uptake inh: blocks cellular internalization of anthrax lethal toxin. 70,000 tested, 0.67% active. AID 912. Potency, µM (top dose mostly 40 µM), inactives show at the highest dose activity change, negative = inhibition, actives largely listed as inhibitors. Cells, anthrax lethal toxin internalization, FRET ratio (460/530); active = well fitted falling ratio curve with the 530 nm signal flat; inconclusive = other ratio curves, or a change in one channel alone; inactive = flat curves in the ratio and both channels; the % refers to the ratio; also: % is scaled to controls: 0 for no effect and ±100 for the full control effect; nearly all actives have a fitted effect of over 50% in size; tested in ME-180 cells; beta-lactamase reporter
# Starred values were filed as active, the others as inactive; ? = inconclusive; . = no result given; [ ] = remark or other dose. Potency is read from the fitted curve at half-maximal effect. This is a subset. The share of hits here may be higher or lower than overall.
SMILES,SmPrx2 inh,LT uptake inh
CC(=O)c1cccc(NC(=O)N2CCCC2C(=O)Nc2cccc(C)c2)c1 (stereo not given),>57,3%
CC1Cc2cc(/C(O)=C3/C(=O)C(=O)N(Cc4ccco4)C3c3cccs3)ccc2O1 (stereo not given),>57,2%
O=P(O)(CCc1ccccn1)CN1CCOCC1,.,4%
CCCCS(=O)(=O)c1sc2nc(C)cc(C)c2c1N,>57,-3%
COC(=O)c1c(F)c(F)c(NCCO)c(F)c1F,.,7%
CN=c1scc(C)n1/N=C/c1ccc2c(c1)OCO2,>57,-3%
COc1ccc2[nH]cc(CCNc3cc(-c4ccc5c(c4)OCO5)ncn3)c2c1,>57,?
CN(Cc1ccccc1)Cc1nc2c(c(=O)n(C)c(=O)n2C)n1Cc1ccccc1Cl,>57,3%
O=C(Cn1cc(C(=O)c2ccco2)c2ccccc21)NC1CCCC1,>57,-3%
CNC(=O)c1cc(C)c(-c2ccccc2)s1,>57,-28%
NC(=NCc1ccc(Cl)c(Cl)c1)NC(=O)c1nc(Cl)c(N)nc1N,>11,?
Cc1ccc2cc(CN(Cc3nnnn3C3CCCCC3)CC3CCCO3)c(=O)[nH]c2c1 (stereo not given),>57,3%
Cc1cccc(C)c1NC(=O)CN1CCN(CCCC(c2ccc(F)cc2)c2ccc(F)cc2)CC1,>26,-17%[3.58 µM]
CCCn1c2c(c(O)c(C(=O)Nc3ncccc3O)c1=O)CCCC2,>57,5%
Cc1ccc(NC(=O)C2CC(=O)NC(N3CCCCC3)=N2)cc1Cl (stereo not given),>57,-3%
Cc1csc(NC(=O)C2CCCN(S(=O)(=O)c3cccnc3)C2)n1 (stereo not given),>57,-1%
COc1ccc(NC(=O)Nc2c(C)n(-c3ccccc3)c(=O)n2C)cc1OC,>57,11%
O=C(OCC(=O)N1CCC(Cc2ccccc2)CC1)c1ccc[nH]c1=O,>57,9%
CCOc1ccc(-c2nnc(NC(=O)c3ccc(OCC(C)C)c(OC)c3)o2)cc1,>57,13%
CN(C1CCCCC1)S(=O)(=O)c1ccc(NC(=O)c2ccco2)cc1,>57,-28%
Cc1ccc2nc(NC(=O)C3CCCN(S(=O)(=O)c4cccc5nsnc45)C3)sc2c1 (stereo not given),>57,?
O=c1cc(Cn2nnc(-c3ccc(Cl)cc3)n2)nc2sccn12,>57,3%
CCn1c(COc2ccc(OC)cc2)nnc1SCC(=O)Nc1cc(OC)ccc1OC,>57,-22%
N#Cc1ccc(CN2CCCC3(CCN(C(=O)c4ccco4)CC3)C2)cc1,>57,8%
C#CCOC(=O)CCC(=O)NCCc1ccccc1,.,7%
ON1C(c2ccccc2)CC2(O)c3nonc3CCC12 (stereo not given),.,-2%
Cn1c(/C(C#N)=C(\O)CN2CCN(Cc3ccccc3)CC2)nc2ccccc21,>57,-14%
O=C(Cn1nnc(-c2ccc(CN3CCOCC3)cc2)n1)Nc1nc(-c2ccccc2)cs1,>57,-16%
O=C(O)[C@H]1[C@H](C(=O)O)[C@H]2CC[C@@H]1O2,>57,2%
NC(=O)/N=N/C(N)=O,.,?
COc1ccc(CNC(=O)CN(CC2CCCO2)C(=O)CNS(=O)(=O)c2ccc(F)cc2)cc1 (stereo not given),>57,-9%
Cc1ccc(NC(=O)c2ccc3c(c2)N(CC(=O)N2CCCCC2)C(=O)C(C)(C)O3)cc1,>57,-2%
COc1ccccc1NC(=O)C1=C(C)Nc2nc(CCCO)nn2C1c1cccnc1 (stereo not given),>57,5%
COc1cccc(Nc2ncc3nc(-c4cccs4)c(=O)n(Cc4cccs4)c3n2)c1,>57,?
CCCCn1c(-c2ccccc2)nc2c(=O)n(C)c(=O)[nH]c21,>57,4%
COC(=O)c1[nH]c2cccc(OC)c2c1NC(=O)CCN1CCC(C(N)=O)CC1,>57,?
O=C1[C@H]2[C@H]3[C@H](O)[C@H](O)C/C(=N/OC[C@@H](O)COCc4ccco4)[C@@H]3CC[C@@H]2C(=O)N1c1cccc(Oc2ccccc2)c1,.,-3%[8 µM]
O=C(Nc1c(F)cc(F)cc1Br)c1ccco1,>57,-5%
O=C(/C=N\O)NCCCNCc1ccccc1,>57,7%
O=C(CNC(=O)c1ccco1)OCC(=O)c1ccc2c(c1)CCCC2,>57,7%
O=S(=O)(Cc1ccccc1)/C1=C(\N2CCOCC2)CCCCCC1,>57,7%
Cc1ccc2nc(SCC(=O)N3CCCC3)[nH]c2c1,>57,6%
COc1cccc(OCCCCCN2CCOCC2)c1,.,7%
CCOC(=O)CC1=CSC2=NS(=O)(=O)CCN12,>57,?
CCCCc1nnc(NC(=O)CSc2nc(=O)cc(N)n2-c2ccccc2)s1,>57,-15%
CSCC[C@H](NC(=O)OC(C)(C)C)C(=O)N1CCC(C(=O)N[C@H](C(=O)O)C(C)C)CC1,>57,8%
OCCSc1nnc(Nc2ccccc2)s1,>57,1%
N=C(N)SCCc1ccc(OCc2ccc([N+](=O)[O-])cc2)cc1,>57,-19%
O=C(NCCO)c1ccc2c(c1)S(=O)(=O)c1ccccc1C2=O,>57,-12%
COc1ccccc1C(=O)N(Cc1ccco1)C1CCS(=O)(=O)C1 (stereo not given),>57,3%
COc1ccc(CNc2nc(-c3cccc(NS(C)(=O)=O)c3)nc3ccccc23)c(OC)c1,>11,?
Cc1cccc(C(=O)N2CCN(C(=O)c3cccc(C)c3)C(C)C2)c1 (stereo not given),>57,29%
COc1ccc(S(=O)(=O)N2CCC(C(=O)Nc3c(F)cccc3F)CC2)cc1,>57,-13%
CCC(C(=O)Nc1nccs1)c1ccccc1 (stereo not given),.,4%
Cc1cc(=O)[nH]c(SCc2cc(=O)n3nc(C)sc3n2)n1,>57,1%
O=C1COc2ccc(-c3csc(NCC4CCCO4)n3)cc2N1 (stereo not given),>57,?
COC(=O)c1sccc1NC(=O)C1CC2CCC1C2 (stereo not given),>57,-3%
O=C(COC(=O)c1ccccc1NC(=O)c1ccco1)NCc1ccc2c(c1)OCO2,>57,17%
N#CCC(=O)NCC1(c2ccccc2)CCCC1,>57,18%
CC(NC(=O)Cc1cccs1)c1ccc2c(c1)OCO2 (stereo not given),>57,9%

# Quoted at random: four compounds from above.
SMILES,SmPrx2 inh,LT uptake inh
O=C1COc2ccc(-c3csc(NCC4CCCO4)n3)cc2N1 (stereo not given),>57,?
CCC(C(=O)Nc1nccs1)c1ccccc1 (stereo not given),.,4%
O=S(=O)(Cc1ccccc1)/C1=C(\N2CCOCC2)CCCCCC1,>57,7%
Cc1cc(=O)[nH]c(SCc2cc(=O)n3nc(C)sc3n2)n1,>57,1%

# The listing continues.
SMILES,SmPrx2 inh,LT uptake inh
O=C(CCN1C(=O)COc2ccccc21)NCCC1=CCCCC1,>57,8%
COCCn1c(SCC(=O)N2CCCc3ccccc32)nc2cccnc21,>57,7%
Cc1nn(-c2ccc(F)cc2F)c2c1-c1nc(N3CCCC3)ncc1CC2,>57,-3%
CCOC(=O)c1ccc(NC(=O)C2C3C=CC(O3)C2C(=O)O)cc1 (stereo not given),.,4%
COc1ccccc1OCc1csc(NC(=O)c2ccco2)n1,>57,-14%
CCc1nc(N[C@@H](Cc2c[nH]c3ccccc23)C(=O)O)c2oc3ccccc3c2n1,>57,?
COCCCNc1nc2c(c(=O)[nH]c(=O)n2C)n1CC(O)COc1cccc(C)c1 (stereo not given),>57,?
COc1cc([C@H]2c3cc4c(cc3[C@@H](O[C@H]3O[C@H]5CO[C@@H](C)O[C@H]5[C@@H](O)[C@@H]3O)[C@@H]3COC(=O)[C@H]23)OCO4)cc(OC)c1O,>57,-2%[3.58 µM]
CCOC(=O)c1ccc(NC(=O)c2cnccn2)cc1,>57,6%
Cc1ccc(NC(=O)CSc2nc3ccccc3c(=O)n2CCCC(=O)N2CCCC2)cc1,>57,-16%
CCn1c(C)nc2cc(C(=O)OCCC(F)(F)F)ccc21,>57,2%
Cc1cc(C)c(C#N)c(N2CCN(CCOc3ccc(Cl)cc3)CC2)n1,>57,-8%
O=C(CCn1cnc2ccccc2c1=O)Nc1ccc2c(c1)OCCO2,>57,23%
COc1ccccc1NC(=O)N1CCc2[nH]c3ccc(F)cc3c2C1,>57,.
Cc1cc(NC(=O)NC(=O)c2ccc(F)cc2F)n[nH]1,>57,4%
O=S(=O)(NCCNC/C=C\c1ccc(Br)cc1)c1cccc2cnccc12,.,?
Cc1ccc(S(=O)(=O)Nc2cc(NC(=O)CN3CCOCC3)ccc2Cl)cc1,>57,-3%
COc1ccc(C=Nc2c(O)ccc3ccccc23)cc1OC,>11,-8%[8 µM]
O=C(CSc1nc(-c2ccccc2)cs1)NCc1ccco1,>57,12%
C=CCN1C(=O)C2(c3ccccc31)C1CCCC=C1C(C#N)=C(N)C2(C#N)C#N (stereo not given),>57,12%
COc1ccccc1N1CCN(C(=O)COc2ccc(C)cc2Br)CC1,.,-16%
O=C(Nc1nc2cc3c(cc2s1)OCCO3)c1cccc(S(=O)(=O)N2CCOCC2)c1,>57,?
Nc1ccc(Cc2ccc(N)c(Cl)c2)cc1Cl,.,?
CC[C@@H]1OC(=O)[C@@H](C)[C@H](O[C@@H]2C[C@@](C)(OC)[C@@H](O)[C@H](C)O2)[C@H](C)[C@H](O[C@@H]2O[C@@H](C)C[C@@H](N(C)C)[C@H]2O)[C@@](C)(O)C[C@H](C)C(=O)[C@@H](C)[C@H](O)[C@@]1(C)O,>57,?
Cn1nnnc1SCc1nc2ccccc2[nH]1,.,0%
COc1ccccc1CNc1cc(-c2ccccc2C)ncn1,>57,21%
Cc1[nH]c(-c2ccco2)nc1C(=O)O,>57,0%
OCC1OC(c2ccc3c(c2)OCO3)C=CC1Oc1cc(Cl)cc(Cl)c1 (stereo not given),.,-25%[8 µM]
Oc1ccc2ccccc2c1CN(Cc1c(O)ccc2ccccc12)C1CCCCC1,>57,-7%[8 µM]
COc1ccc(N2CCN(C(=O)CSc3nnnn3-c3ccc4c(c3)OCCO4)CC2)cc1,>57,4%
CC1(C)CC(=O)C(CC(=O)NC(=O)NCc2ccccc2)=C(O)C1,>57,?
COc1ccccc1NC(=O)c1ccccc1-c1nc(-c2ccccc2OC)no1,>57,-20%
NCCCC(=O)N1c2ccccc2Sc2ccccc21,>57,-8%
CCOC(=O)N1CCN(C(=O)CCn2nc(-c3ccc(Cl)cc3)ccc2=O)CC1,>57,2%
Cc1ccc(Nc2cc(C)nc3nc(C)nn23)c(C)c1,>57,-3%
COc1nccc(Nc2ccccc2)c1C#N,>57,.
Cn1c2ccccc2c2cc(C(=O)OCC(=O)N3CC(=O)Nc4ccccc43)sc21,>57,?
O=C(CCC1CCCC1)c1c(O)c2ccccc2oc1=O,>57,-12%
COc1ccc(CN2CCCCC2c2cccnc2)c(OC)c1C (stereo not given),.,-8%
COc1ccc(-n2c(C)nnc2SCC(=O)N2C(C)CCCC2C)cc1 (stereo not given),>57,-4%

# Overlap with the part before: five compounds, then new ones.
SMILES,SmPrx2 inh,LT uptake inh
COc1nccc(Nc2ccccc2)c1C#N,>57,.
Cn1c2ccccc2c2cc(C(=O)OCC(=O)N3CC(=O)Nc4ccccc43)sc21,>57,?
O=C(CCC1CCCC1)c1c(O)c2ccccc2oc1=O,>57,-12%
COc1ccc(CN2CCCCC2c2cccnc2)c(OC)c1C (stereo not given),.,-8%
COc1ccc(-n2c(C)nnc2SCC(=O)N2C(C)CCCC2C)cc1 (stereo not given),>57,-4%
COc1ccc(N(CC(=O)Nc2ccc3c(c2)OCCO3)S(=O)(=O)c2cccnc2)cc1,>57,-12%
COc1ccc(NC(=O)CSc2nnc(-c3cccs3)n2Cc2ccco2)cc1OC,>57,-5%
CCCC(=O)Nc1ccccc1NC(C)=O,>57,4%
COc1cc2[nH]c(=O)n(CCCCCC(=O)NCCCN3CCOCC3)c(=O)c2cc1OC,>57,6%
Cc1nnc2sc(-c3csc4c3CCCC4)nn12,>57,12%
COc1ccc(CCNC(=O)C2CCN(C(=O)N(C)C)CC2)cc1OC,>57,-22%
COc1ccccc1-c1nnc(SCc2nc3ccccc3[nH]2)n1C,>57,-7%
O=C1CSC(=Nc2ccccc2Cl)N1,.,-4%
Cc1cc(C)c(NC(=O)C(C)(C)C)c(Cl)c1,.,4%
CCNc1ncc2nc(-c3ccc(OC)cc3)c(=O)n(Cc3cccc(OC)c3)c2n1,>57,?
Nc1nc(CSc2nnnn2-c2ccccc2)nc(N2CCCc3ccccc32)n1,>57,9%
Cc1cccc(-n2c(C)nc3c(cnn3-c3ccc(F)cc3)c2=O)c1,>57,6%
COc1ccc(Cl)cc1NC(=O)c1cccnc1,.,-9%
CCS(=O)(=O)Nc1ccc(C(=O)CC2(O)C(=O)Nc3ccccc32)cc1 (stereo not given),>57,-2%
O=C(c1ccco1)N1CCN(c2ncccn2)CC1,>57,-13%
CC(=O)[C@H]1[C@H]2[C@H](C(=O)[C@@H]3OC[C@H]2O3)[C@@H]2c3ccccc3C=CN12,>57,?
O=C(Nc1cccc(F)c1)N1CCCC2(CCN(C(=O)c3cnccn3)CC2)C1,>57,1%
COCCNC(=O)c1ccc2c(c1)nc(C)n2-c1cccc(F)c1,>57,1%
Cn1cc(CC(=O)NCCCN2CCCC2=O)c2ccccc21,>57,8%
CCCn1cc(S(=O)(=O)CC(=O)Nc2ccc(OC)cc2OC)c2ccccc21,>57,-15%
CC(C)c1cc(C(N)=O)c(NC(=O)C2CCC2)s1,>57,-2%
